Screening results from PubChem.
DUX4 txn inh = inhibitors of DUX4-driven ZSCAN4 reporter expression, primary screen, 293T cells, Gaussia and Italica luciferase. 293T-iDUX4 ZSCAN4-Gaussia luciferase reporter, 24 h; hits give low values. activity change, negative = inhibition, % (no concentration beside the values). 37,000 tested, 0.8% active;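 active = -10% or lower and over 25 points stronger than a control reporter; inconclusive = -10% or lower with a smaller gap; inactive = above -10%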;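 also: 0% = median of neutral control wells and -100% = median of positive control wells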
DUX4 txn inh difference = second read-out of DUX4 txn inh, no call of its own (marks repeat the call); Gaussia minus Italica difference, %; measured here: selective DUX4 reporter inhibition;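 worked out from the two reporters; negative = selective loss of the DUX4 reporter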
DUX4 txn inh control = also measured in DUX4 txn inh; calls as there; activity change, negative = inhibition, %; measured here: Italica tet-on control reporter;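 0 = neutral control and -100 = positive control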
An asterisk follows results filed as active; ? = inconclusive; . = not tested or not shown. A portion of the library; count on the stated rates, not on these rows.

SMILES | DUX4 txn inh | DUX4 txn inh difference | DUX4 txn inh control
COc1ccc2c3c(n(C)c2c1)[C@@H](CO)N(S(C)(=O)=O)CC31CCN(C(=O)Nc2cccc(F)c2)CC1 | 14.6 | 19.3 | -4.7
CN(C)CC(=O)N1[C@@H](CO)[C@H](c2ccccc2)C12CN(CC1CC1)C2 | 12.7 | 6.2 | 6.5
Cc1ccc(S(=O)(=O)Nc2ccc3c(c2)C(=O)N([C@@H](C)CO)C[C@@H](C)[C@H](CN(C)C(=O)NC2CCCCC2)OCCCC[C@H](C)O3)cc1 | -2.5 | -9.8 | 7.3
C/C=C/c1cnc2c(c1)C(=O)N([C@@H](C)CO)C[C@@H](C)[C@@H](CN(C)CC1CCOCC1)O2 | -5.3 | -3.4 | -1.9
CCC(=O)N1CC2(C1)CN(Cc1ccccc1Cl)[C@H](CO)c1[nH]c3cc(OC)ccc3c12 | ? | . | .
COc1cccc(C(=O)Nc2ccc3c(c2)OC[C@H](C)N(CCc2ccccc2)C[C@@H](C)[C@H](OC)CN(C)C3=O)c1 | ? | . | .
O=C(c1ccc2c(c1)OCO2)N1CC[C@@H]2[C@H]1c1cc(-c3ccc(F)cc3)ccc1N[C@@H]2CO | -0.9 | -4.5 | 3.6
COC(=O)[C@H]1[C@H](CO)[C@H]2Cn3c(cccc3=O)[C@H]2N1CC1CCOCC1 | 7.3 | 13.2 | -5.8
CN1C(=O)c2cc(NC(=O)Cc3cccs3)ccc2OC[C@@H]2O[C@@H](CC(=O)NCC3CCCCC3)CC[C@@H]21 | 4.5 | 1.5 | 3.0
COc1ccc(NC(=O)Nc2cccc3c2O[C@@H](CN(C)Cc2ccc(C(=O)O)cc2)[C@@H](C)CN([C@@H](C)CO)C3=O)cc1 | -3.1 | -3.4 | 0.4
COC(=O)N(C)C[C@@H]1OCc2cnnn2CCCC(=O)N([C@H](C)CO)C[C@H]1C | -2.0 | -4.4 | 2.4
COCCNC(=O)C[C@H]1CC[C@H]2[C@@H](COC[C@@H](O)CN2C(=O)c2cc(Cl)cc(Cl)c2)O1 | -5.3 | -3.5 | -1.8
O=C(Nc1ccc2c(c1)[C@H]1C[C@H](CC(=O)N3CCc4ccccc4C3)O[C@H](CO)[C@H]1O2)C1CCOCC1 | 3.4 | 6.2 | -2.8
CC(=O)N1[C@@H](CO)[C@@H](c2ccccc2)C12CN(Cc1ccccc1)C2 | -1.3 | -0.7 | -0.6
CCCC(=O)Nc1ccc2c(c1)C(=O)N(C)[C@H]1CC[C@@H](CC(=O)NCc3cccc(F)c3)O[C@H]1CO2 | -1.7 | 0.1 | -1.8
CCCNC(=O)N1[C@H](CNC(=O)c2cccc(F)c2)[C@@H](c2ccccc2)[C@@H]1CO | -1.9 | -3.3 | 1.4
O=C(C[C@H]1C[C@H]2c3cc(NC(=O)CC4CC4)ccc3O[C@H]2[C@@H](CO)O1)NCc1ccccn1 | 4.2 | 0.6 | 3.6
CC(C)NC(=O)Nc1ccc2c(c1)C(=O)N([C@@H](C)CO)C[C@@H](C)[C@@H](CN(C)S(=O)(=O)c1ccc(F)cc1)OCCCC[C@@H](C)O2 | 2.4 | 2.8 | -0.4
C[C@@H]1CCCCO[C@@H](CN(C)C(=O)Nc2cccc3ccccc23)[C@H](C)CN([C@H](C)CO)C(=O)c2cc(NC(=O)c3ccncc3)ccc2O1 | 1.3 | 1.5 | -0.2
C[C@@H]1CN([C@H](C)CO)C(=O)CCCn2cc(nn2)CO[C@@H]1CN(C)C(=O)c1ccncc1 | 3.3 | 1.7 | 1.6
CN(C)C(=O)[C@H]1[C@H](CO)[C@H]2Cn3c(cccc3=O)[C@@H]1N2CC1CCCC1 | 3.1 | 0.9 | 2.2
O=C(NC1Cc2ccccc2C1)[C@H]1N[C@H]2c3ccc(C4=CCCC4)c(=O)n3C[C@H]2[C@@H]1CO | -1.3 | 3.4 | -4.7
COC(=O)N(C)C[C@@H]1OCc2cn(nn2)CCCC(=O)N([C@@H](C)CO)C[C@H]1C | 7.7 | 0.8 | 6.9
CC(C)NC(=O)N(C)C[C@@H]1Oc2ccc(NC(=O)Nc3ccc4c(c3)OCO4)cc2CC(=O)N([C@@H](C)CO)C[C@H]1C | 0.8 | 0.4 | 0.4
COc1ccccc1NC(=O)N(C)C[C@@H]1OCc2cn(nn2)CCCC(=O)N([C@H](C)CO)C[C@@H]1C | -1.9 | -3.7 | 1.8
COc1ccc2c3c([nH]c2c1)[C@@H](CO)N(Cc1ccc(Cl)cc1)CC31CN(S(C)(=O)=O)C1 | ? | . | .
C[C@H]1CN([C@@H](C)CO)C(=O)c2cccc(NC(=O)c3ccc(-c4nccs4)cc3)c2O[C@H]1CN(C)Cc1ccc(Cl)c(Cl)c1 | -2.6 | -2.3 | -0.3
C[C@H](CO)N1C[C@H](C)[C@@H](CN(C)S(=O)(=O)c2ccc(Cl)cc2)Oc2ccc(NC(=O)CCC(F)(F)F)cc2CC1=O | 3.2 | -1.7 | 4.9
C[C@@H]1CC=CC[C@@H](c2ccccc2)NC(=O)[C@H](Cc2ccccc2)N(C)C(=O)c2ccccc2O1 (mixture of isomers) | 1.6 | 4.7 | -3.1
CN1[C@@H]2c3ccc(-c4ccc(F)cc4)c(=O)n3C[C@H]1[C@H](CO)[C@H]2C(=O)N1CCCCC1 | -1.3 | 2.6 | -3.9
CCCNC(=O)Nc1ccc2c(c1)C(=O)N(C)[C@@H]1CC[C@@H](CC(=O)NC)O[C@@H]1CO2 | -2.5 | -2.3 | -0.2
COc1ccc2c3c([nH]c2c1)[C@H](CO)N(S(C)(=O)=O)CC31CCN(Cc2ccccc2)CC1 | ? | . | .
CO[C@H](CN(C)C(=O)c1cnccn1)[C@@H](C)CN([C@H](C)CO)S(=O)(=O)c1ccc(C)cc1 | -1.9 | 2.6 | -4.5
N#C[C@H]1[C@H](c2ccc(C#Cc3cccc(F)c3)cc2)[C@H](CO)N1C(=O)C1CCCC1 | -1.1 | 1.2 | -2.3
COc1ccc2c3c([nH]c2c1)[C@@H](CO)N(S(C)(=O)=O)CC31CCN(Cc2cccc(F)c2)CC1 | ? | . | .
N#C[C@H]1[C@@H](c2ccc(C#CCC3CCCC3)cc2)[C@H](CO)N1C(=O)c1ccccn1 | 0.1 | 0.0 | 0.0
COCC#Cc1ccc2c(c1)O[C@H](CN(C)Cc1ccc3c(c1)OCO3)[C@H](C)CN([C@@H](C)CO)S2(=O)=O | -2.3 | 0.7 | -3.0
COc1ccc(S(=O)(=O)N2CC[C@@H]3[C@H](CO)Nc4ccc(-c5ccccc5F)cc4[C@@H]32)cc1 | ? | . | .
COCC(=O)N1[C@@H]2c3ccc(C4=CCCCC4)c(=O)n3C[C@@H]2[C@@H](CO)[C@@H]1C(=O)N1CCN(C)CC1 | -5.2 | -4.5 | -0.7
C[C@H]1CN([C@@H](C)CO)S(=O)(=O)c2ccc(-c3ccncc3)cc2O[C@H]1CN(C)C(=O)c1ccc2c(c1)OCO2 | 1.1 | -1.0 | 2.1
C[C@H]1CN([C@@H](C)CO)S(=O)(=O)c2ccc(/C=C/c3ccccc3)cc2O[C@H]1CN(C)C(=O)Nc1cccc(F)c1 | 0.7 | 1.6 | -0.9
Cc1noc(C)c1S(=O)(=O)N(C)C[C@H]1OCCCC[C@@H](C)Oc2ccc(NC(=O)Nc3cccc4ccccc34)cc2C(=O)N([C@H](C)CO)C[C@@H]1C | 1.7 | 1.7 | 0.1
C[C@H](CO)N1C[C@H](C)[C@H](CN(C)C(=O)Nc2cccc(F)c2)OCc2cnnn2CCCC1=O | -4.5 | -9.5 | 5.0
COc1ccccc1-c1ccc2n(c1=O)C[C@H]1[C@H](CO)[C@@H](C(=O)N(C)C)[C@@H]2N1C(=O)c1cccnc1 | 3.8 | 1.0 | 2.8
C[C@@H](NC(=O)[C@H]1N[C@H]2c3ccc(-c4ccncc4)c(=O)n3C[C@H]2[C@@H]1CO)c1ccccc1 | 7.7 | 7.4 | 0.2
CCCNC(=O)N[C@@H]1CC[C@H](CC(=O)NC2CCC2)O[C@H]1CO | 6.8 | 7.6 | -0.7
CCCC(=O)N1CC2(CCN(C(=O)CC3CC3)CC2)c2c(n(C)c3cc(OC)ccc23)[C@@H]1CO | 14.5 | 11.6 | 3.0
O=C(C[C@@H]1CC[C@H]2[C@@H](COC[C@H](O)CN2S(=O)(=O)c2ccc(F)cc2)O1)N[C@@H]1CCN(Cc2ccccc2)C1 | 6.7 | -6.9 | 13.6
CN(C)CCCNC(=O)C[C@H]1CC[C@H]2[C@@H](COc3ccc(NC(=O)C4CCC4)cc3C(=O)N2C)O1 | 0.8 | 2.4 | -1.6
O=C(NC1Cc2ccccc2C1)[C@@H]1[C@@H](CO)[C@@H]2Cn3c(ccc(C4=CCCC4)c3=O)[C@H]1N2 | -4.3 | -6.8 | 2.5
N#C[C@@H]1[C@@H](c2ccc(C3=CCCCC3)cc2)[C@H](CO)N1C(=O)Cc1ccncc1 | -3.0 | -0.9 | -2.2
CN(C)C(=O)c1ccc(-c2ccc3c(c2)[C@H]2[C@H](CCN2C(=O)C2CCOCC2)[C@H](CO)N3C)cc1 | 26.6 | 56.5 | -30.0
COc1ccc2c3c([nH]c2c1)[C@H](CO)N(C(C)=O)CC31CN(C(=O)Nc2ccccc2F)C1 | 7.5 | 10.4 | -2.9
CCC(=O)N1CCCCN2[C@H](CO)[C@@H](c3ccc(/C=C/c4ccccc4)cc3)[C@H]2C1 | ? | . | .
CC(C)(C)[S@@](=O)N1Cc2cc(C(=O)NCc3ccc4c(c3)OCO4)nc(-c3cccc(-c4cccnc4)c3)c2[C@H]1CCO | -0.9 | -2.6 | 1.7
CN(C)CC#Cc1ccc([C@H]2[C@@H](CO)N3C(=O)CN(C(=O)c4ccc(F)cc4)C[C@@H]23)cc1 | 3.6 | 3.7 | -0.1
O=C(C[C@H]1C[C@@H]2c3cc(NC(=O)Nc4ccccc4)ccc3O[C@@H]2[C@@H](CO)O1)NCc1ccccc1 | ? | . | .
O=C(c1ccccn1)N1CC[C@H]2[C@H](CO)Nc3ccc(C#Cc4cccnc4)cc3[C@H]21 | 7.9 | 3.4 | 4.5
COC(=O)C[C@H]1CC[C@@H]2[C@@H](COc3ccc(NS(=O)(=O)c4ccccc4Cl)cc3C(=O)N2C)O1 | -2.6 | -5.8 | 3.2
COc1ccccc1C#Cc1ccc([C@H]2[C@@H](CO)N3CCCCN(CCC(F)(F)F)C[C@@H]23)cc1 | ? | . | .
Following part:
SMILES | DUX4 txn inh | DUX4 txn inh difference | DUX4 txn inh control
COC(=O)C[C@H]1CC[C@H]2[C@@H](COc3ccc(NC(=O)Nc4c(C)noc4C)cc3C(=O)N2C)O1 | 2.4 | 6.6 | -4.2
C[C@H]1CN([C@@H](C)CO)C(=O)c2ccccc2-c2ccccc2CO[C@H]1CN(C)Cc1ccc(Oc2ccccc2)cc1 | ? | . | .
C/C=C/c1ccc([C@@H]2[C@@H](CO)N(C(=O)C3CC3)[C@H]2CN(C)C(=O)C2CC2)cc1 | 0.1 | -0.5 | 0.5
C[C@@H]1CCCCO[C@@H](CN(C)Cc2ccc(C(F)(F)F)cc2)[C@H](C)CN([C@@H](C)CO)C(=O)c2cc(NC(=O)CCCN(C)C)ccc2O1 | -1.7 | -3.9 | 2.2
CC=Cc1ccc2n(c1=O)C[C@@H]1[C@@H](CO)[C@H](C(=O)NCc3ccncn3)N(C(=O)C3CCCC3)[C@H]21 (mixture of isomers) | -1.9 | -6.7 | 4.8
COc1ccc2c3c(n(C)c2c1)[C@@H](CO)N(Cc1ccccc1)CC31CN(S(C)(=O)=O)C1 | 2.2 | 5.2 | -3.0
COc1ccccc1NC(=O)N1CC(=O)N2[C@H](C1)[C@@H](c1ccc(C#CC(C)C)cc1)[C@@H]2CO | -3.5 | 5.8 | -9.3
O=C(Nc1ccc(F)cc1)N1CCCCN2[C@H](CO)[C@@H](c3ccc(C#Cc4ccccn4)cc3)[C@H]2C1 | 5.7 | -1.0 | 6.7
C/C=C/c1ccc([C@@H]2[C@@H](CO)N(C(=O)CC)[C@@H]2CNC(=O)CC)cc1 | -6.8 | -9.1 | 2.3
